Source: PubChem
GIV Gai3 FP: GIV-Galpha-i interaction inhibition; Galpha-i3/FITC-GIV peptide fluorescence polarization, 90 min; active compounds read low; scaled: aluminum fluoride 0%, vehicle 100%; percent of control (FP), % (concentration not given with the values); actives 0.42% (n = 210,000);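 active = replicate mean at 85% of control or lower, very high polarization wells dropped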;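 also: wells of about 15 µL received 100 nL stock; the first replicate is given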
Target sequence (P08753 whole entry, looked up): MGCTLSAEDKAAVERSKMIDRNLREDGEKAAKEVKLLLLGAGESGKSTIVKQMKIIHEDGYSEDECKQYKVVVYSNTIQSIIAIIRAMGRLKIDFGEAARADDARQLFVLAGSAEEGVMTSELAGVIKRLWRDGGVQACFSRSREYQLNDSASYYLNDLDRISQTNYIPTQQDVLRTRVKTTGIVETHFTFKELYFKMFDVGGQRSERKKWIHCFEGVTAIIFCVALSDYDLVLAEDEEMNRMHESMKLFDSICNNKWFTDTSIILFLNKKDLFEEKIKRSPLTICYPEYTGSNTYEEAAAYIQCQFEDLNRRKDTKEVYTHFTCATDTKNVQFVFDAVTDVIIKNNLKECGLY
Sa growth inh: inhibitors of Staphylococcus aureus growth at 42 °C | actives 0.53% (n = 170,000) | S. aureus RN4220 growth, OD600, 20 h; active compounds read low | relative growth, % (concentration not given with the values) | AID 720641;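 active = growth at 42 °C up to 50% and 20 or more points under that at 30 °C, or under 10% at both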;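 also: 300 nL library stock went into each well; scaled to the means of positive and negative controls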
HCMV UL50-53 inh: cytomegalovirus nuclear egress complex inhibition; actives 0.15% (n = 190,000); HTRF UL50-UL53 interaction, normalized percent inhibition; inhibition, % (no concentration beside the values);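 active = both replicates at 50% or more, plus weaker picks with an unusually low signal ratio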;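 also: stock transfer was 100 nL into about 20 µL; 0% = negative control wells and 100% = wells with untagged competitor protein; inactives centre near -12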
Sa growth inh second temp: further read-out of Sa growth inh, marked with its call; relative growth, %; measured here: growth at 30 °C;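 optical density after 20 h as mean of two plates; 100% = untreated growth and lower means inhibition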
Active calls of the source: *; x = not tested or not shown; & = joins results of further samples.

nr	Structure	GIV Gai3 FP	Sa growth inh
1	Cc1cccc(-c2nc(SCc3ccc(Br)cc3)n3[nH]c(=O)cc3n2)c1	97	91
2	CN(Cc1ccccc1)C(=O)CCCn1c(=O)c2cccn2c2cccnc21	100	93
3	Cc1ccnc(NC(c2ccsc2)c2c(NC(=O)c3ccccc3)sc(C)c2C)c1 (stereo not drawn)	110	x
4	COc1ccc2c(c1)c(NC(C)=O)c1n2CC(C)(C(=O)NC2CCCC2)N(Cc2cccnc2)C1=O (stereo not drawn)	100	x
5	CCOC(=O)C1=C(N)OC2=C(C(=O)CC(c3ccccc3)C2)C1c1ccccc1C (stereo not drawn)	106	x
6	Cc1ccc2nc(NC(=O)C3CCCC3)sc2c1	98	117
7	C=CCOc1ccc(C2c3c(oc4ccc(C)cc4c3=O)C(=O)N2CCCN2CCOCC2)cc1 (stereo not drawn)	107	96
8	Cc1nn2c(=O)cc(CN(C)c3ccccc3)nc2s1	106	113
9	Cc1ccc(-c2cc(C(=O)Nc3nccs3)c3ccccc3n2)o1	x	81
10	CSc1ccccc1NC(=O)C(C)NS(=O)(=O)c1ccc(C)cc1 (stereo not drawn)	95	114

nr	Sa growth inh second temp	HCMV UL50-53 inh
1	92	x
2	87	x
3	x	0
4	x	51
5	x	-4
6	94	-2
7	90	-48
8	95	x
9	92	-24
10	93	-13

nr	Structure	GIV Gai3 FP	Sa growth inh
11	CC(O)CNC(=O)C(=O)NCc1n[nH]c(=O)c2ccccc12 (stereo not drawn)	105	x
12	COC(=O)NCCCN1CCCC1=O	108	117
13	CCOc1ccc(-n2ccn3c(CC(C)CC(=O)O)nnc3c2=O)cc1 (stereo not drawn)	104&102	95
14	Cc1ccccc1-c1nn2c(=O)cc(N3CCN(S(=O)(=O)Cc4ccccc4)CC3)nc2s1	101	x
15	O=C(Cn1c(=O)c(C(F)(F)F)nc2ccccc21)Nc1cccc(Br)c1	108	108
16	Cc1cc(N2CCCC2)nc2ccc(NC(=S)NCCN3CCOCC3)cc12	98	77
17	CC(=O)Nc1ccc(-c2cc(C(=O)O)c3c(-c4ccccc4)[nH]nc3n2)cc1	98	85
18	Cc1ccc(S(=O)(=O)N(Cc2ccccc2C)c2nc3nc(C)cc(C)n3n2)cc1	98	x
19	CCOc1cc2c3c(c1)C1(Nc4ccccc4CO1)C(=O)N3C(C)(C)CC2C (stereo not drawn)	104	115
20	NC(=S)N/N=C/c1ccc(N2CCOCC2)s1	x	81

nr	Sa growth inh second temp	HCMV UL50-53 inh
11	x	-8
12	102	-1
13	103	3&-34
14	x	-9
15	98	x
16	85	x
17	92	-25
18	x	-23
19	98	2
20	86	-62

Retrieved one by one from the entries so far, 4 records:
nr	Structure	GIV Gai3 FP	Sa growth inh
14	Cc1ccccc1-c1nn2c(=O)cc(N3CCN(S(=O)(=O)Cc4ccccc4)CC3)nc2s1	101	x
8	Cc1nn2c(=O)cc(CN(C)c3ccccc3)nc2s1	106	113
7	C=CCOc1ccc(C2c3c(oc4ccc(C)cc4c3=O)C(=O)N2CCCN2CCOCC2)cc1 (stereo not drawn)	107	96
2	CN(Cc1ccccc1)C(=O)CCCn1c(=O)c2cccn2c2cccnc21	100	93

nr	Sa growth inh second temp	HCMV UL50-53 inh
14	x	-9
8	95	x
7	90	-48
2	87	x

Entries shown so far containing an aryl thioether with sulfur outside any ring (2):
nr	Structure	GIV Gai3 FP	Sa growth inh
1	Cc1cccc(-c2nc(SCc3ccc(Br)cc3)n3[nH]c(=O)cc3n2)c1	97	91
10	CSc1ccccc1NC(=O)C(C)NS(=O)(=O)c1ccc(C)cc1 (stereo not drawn)	95	114

nr	Sa growth inh second temp	HCMV UL50-53 inh
1	92	x
10	93	-13

The results go on.
nr	Structure	GIV Gai3 FP	Sa growth inh
21	O=C(c1nc(-c2ccccc2)n(-c2ccc(Cl)cc2)n1)N1CCOCC1	97	x
22	Cc1ccc(C(=O)Nc2ccc3c(c2)OCO3)cc1	x	97
23	Nc1c(C(=O)NCC2CCCO2)c2nc3ccccc3nc2n1/N=C/c1ccccn1 (stereo not drawn)	112	120
24	Cc1ccc(OCc2nn(C)c3ccccc23)cc1	x	88
25	N#Cc1c(-c2ccccc2)c(-c2ccccc2)nn(CC(=O)NN)c1=O	98	96
26	CC(C)C(=O)N(Cc1ccccc1)S(=O)(=O)c1ccc2c(c1)oc(=O)n2C	112	101
27	O=C(Cn1ccn(-c2cccc(Cl)c2)c(=O)c1=O)NCCc1ccccc1	98	107
28	CNC(=O)CN(C1CCCCC1)S(=O)(=O)c1ccc(C)cc1	101	102
29	CCCCOc1ccc(C(=O)NCCc2csc(-c3cccc(F)c3)n2)cc1	104	91
30	O=S(=O)(Cc1noc(CSc2ccc(Cl)cc2)n1)c1ccccn1	104	101

nr	Sa growth inh second temp	HCMV UL50-53 inh
21	x	-5
22	67	-6
23	86	22
24	103	-4
25	82	-154
26	91	0
27	89	-20
28	102	-24
29	85	x
30	83	-1

Entries of single compounds, quoted from the list. Screens in order: GIV Gai3 FP	Sa growth inh	Sa growth inh second temp	HCMV UL50-53 inh
Record of Cc1ccc(C(=O)Nc2ccc3c(c2)OCO3)cc1 : x	97	67	-6
Record of CCCCOc1ccc(C(=O)NCCc2csc(-c3cccc(F)c3)n2)cc1 : 104	91	85	x

The results go on:
nr	Structure	GIV Gai3 FP	Sa growth inh
31	Cn1/c(=N/N=C2\CC3CC=CC23)sc2ccccc21 (stereo not drawn)	x	121
32	O=C(NC12CC3CC(CC(C3)C1)C2)C1CCN(S(=O)(=O)c2cccs2)CC1	102	x
33	O=C1CC(c2n[nH]c(=S)o2)CN1c1ccc(F)c(Cl)c1 (stereo not drawn)	103	x
34	Cc1cccc2c(=O)c(N)c[nH]c12	105	80
35	O=C(NCC1CCCO1)c1ccc(CN2C(=O)CCn3nc(-c4cccc(Cl)c4)cc32)cc1 (stereo not drawn)	109	x
36	O=C(CSc1nnc(-c2cccs2)n1-c1ccccc1)NCC1COc2ccccc2O1 (stereo not drawn)	x	105
37	CC(=O)N1CCN(C2=NC(=O)/C(=C\c3ccc(-c4ccc(Cl)c(Cl)c4)o3)S2)CC1	105	91
38	Oc1ccccc1-c1nc2ccc(Cl)cn2c1Nc1ccc2c(c1)OCCO2	101	97
39	Clc1ccc(-n2ncnc2-c2ccc3c(c2)OCO3)cc1	108	82
40	COc1ccc(OC)c(C2C(C#N)=C(N)Oc3n[nH]c(-c4ccc([N+](=O)[O-])cc4)c32)c1 (stereo not drawn)	99	x

nr	Sa growth inh second temp	HCMV UL50-53 inh
31	86	-16
32	x	-22
33	x	-31
34	74	-40
35	x	-9
36	86	2
37	71	9
38	89	-5
39	84	x
40	x	-32

nr	Structure	GIV Gai3 FP	Sa growth inh
41	CCOC(=O)C1CCC(C(=O)OCC)N1C(=O)Nc1ccc(Cl)cc1 (stereo not drawn)	99	97
42	CCCC(=O)Nc1ccc(SCc2cc(=O)n3oc(C)cc3n2)cc1	113	x
43	CCc1nc2ccc(C(=O)NCc3cc(OC)ccc3OC)cc2nc1CC	106	117
44	COC(=O)c1ccc(NC(=O)C(C)Sc2nc3c(c(=O)[nH]2)CCCC3)cc1 (stereo not drawn)	99	119
45	O=C(Oc1cccc(NC2=NS(=O)(=O)c3ccccc32)c1)c1cccc([N+](=O)[O-])c1	106	x
46	CCn1cc(CCC(=O)O)c2ccccc21	100	100
47	O=c1c(-c2nc(-c3ccc4c(c3)OCO4)no2)c[nH]c2ccc(F)cc12	104	x
48	COc1ccc(N2C(=O)CS(=O)(=O)C23C(=O)N(Cc2c(F)cccc2Cl)c2ccccc23)cc1 (stereo not drawn)	103	116
49	COC(=O)C1(C)NC2(CCCCC2)Cc2ccccc21 (stereo not drawn)	x	79
50	Cc1cc(=O)[nH]c(NC(=O)C(C)(C)C)n1	100	111

nr	Sa growth inh second temp	HCMV UL50-53 inh
41	96	5
42	x	-5
43	97	x
44	90	-5
45	x	-18
46	92	-15
47	x	-24
48	88	x
49	83	-7
50	90	3

nr	Structure	GIV Gai3 FP	Sa growth inh
51	CCCCOC(=O)c1ccc(NC(=O)c2sc3nc(C)cc(C)c3c2N)cc1	104	102
52	N#C/C(=C(/O)C1CC1)c1nc2ccccc2s1	x	149
53	O=C(Nc1ccc2oc(-c3ccccc3)nc2c1)c1ccc2ccccc2c1	101	92
54	CN(C)Cc1nc2ccccc2c(=O)n1Cc1nc(C(C)(C)C)cs1	x	134
55	CCn1nccc1C1CCCN1S(=O)(=O)c1cc(F)ccc1F (stereo not drawn)	96	x
56	CC1(C)CC(=O)C2=C(C1)OC1=C(C(=O)CC(C)(C)C1)C2c1ccc(OCc2ccccc2)cc1	107	x
57	O=C(Nc1ccccc1)c1cccc(-c2nnc(-c3ccccc3)o2)c1	106	120
58	CCC1CCCCN1C(=O)c1cnn2cccnc12 (stereo not drawn)	99	108
59	Cc1ccc(C(=O)NCC(=O)OCc2cc(=O)n3ccsc3n2)cc1	101&97	87
60	FC(F)(F)c1cc(-c2ccco2)nc(-n2cccn2)n1	103	108

nr	Sa growth inh second temp	HCMV UL50-53 inh
51	87	-20
52	57	-39
53	88	-49
54	94	5
55	x	-22
56	x	-20
57	98	-7
58	102	5
59	90	-38
60	94	x

nr	Structure	GIV Gai3 FP	Sa growth inh
61	O=c1oc(-c2ccc(Br)cc2)nc2scc(-c3ccc(-c4ccccc4)cc3)c12	103	x
62	Cc1ccc(CNC(=O)CSc2nc3ccccc3c(=O)n2-c2ccccc2)cc1	x	116
63	CCC1(CC)NC(=S)N(Nc2ccccc2)C1=O	99	103
64	O=C(COC(=O)c1ccc(I)cc1)NC1CCCCC1	x	113
65	CC(=O)NCc1ccc(C(=O)CSc2n[nH]c(-c3cccs3)n2)s1	x	93
66	CCCCCCC1C(C#N)=C(N)OC2=C1C(=O)CC(C)(C)C2 (stereo not drawn)	98	94
67	CC1CCN(C(=O)CCn2ccc3cc(S(=O)(=O)N4CCCCC4)ccc32)CC1	108	101
68	COc1cc(OC)c(OC)cc1CNc1ccc2[nH]c(=O)[nH]c2c1	97	78
69	CCOc1ccccc1/C=C(\C#N)c1nc(-c2cc3cc(Br)ccc3oc2=O)cs1	109	x
70	COc1cc2ccccc2cc1C(=O)Nc1cccc(-c2nc3cc(C)c(C)cc3o2)c1	105	102

nr	Sa growth inh second temp	HCMV UL50-53 inh
61	x	-20
62	92	-8
63	110	-23
64	91	-10
65	82	-33
66	94	-9
67	102	-10
68	95	-2
69	x	-11
70	84	-54

nr	Structure	GIV Gai3 FP	Sa growth inh
71	Cc1nn(CC(=O)N(C)C)c(C)c1S(=O)(=O)N(C)C	x	120
72	Cc1cccc(C(=O)N=Nc2c(O)[nH]c3ccc(C)cc23)c1	100	92
73	O=C(c1cnc2ccccc2c1NCc1ccc(Cl)cc1)N1CCOCC1	104	x
74	O=C(CSc1nc2c(c(=O)n1CCc1ccccc1)SCC2)N1CCCC1	105	93
75	Cn1c(=O)n(C)c2cc(CN3C(=O)OC(C)(C)C3(C)O)ccc21 (stereo not drawn)	100	101
76	O=C1CSc2ccc(C(=O)N3CCN(c4ccc(F)cc4)CC3)cc2N1	x	82
77	OCc1nc(-c2ccccc2)cs1	102	115
78	Cc1ccc(-n2sc3ccccc3c2=O)cc1	104	1.1*
79	CCc1ccc(S(=O)(=O)N(C(C)=O)c2ccc3oc4c(c3c2)CCCC4)cc1	105	109
80	COc1cc(OC)c(NC(=O)c2cc(S(=O)(=O)N3CCCC3)cn2C)cc1Cl	99	99

nr	Sa growth inh second temp	HCMV UL50-53 inh
71	94	-6
72	91	-73
73	x	7
74	87	-22
75	88	-16
76	94	5
77	92	-15
78	0.0*	x
79	107	14
80	95	-10

nr	Structure	GIV Gai3 FP	Sa growth inh
81	Cc1nc2ccc(NS(=O)(=O)c3ccc(F)cc3)cc2s1	x	87
82	CCOc1ccccc1CNC(=O)CCn1cccn1	102	79
83	CCOC(=O)c1ccc2c(c1)N(Cc1nc(-c3ccccc3C)oc1C)C(=O)c1ccccc1S2(=O)=O	100	x
84	O=C(c1cnn(C(=S)Nc2ccccc2)c1)c1cc(Cl)ccc1O	x	98
85	O=S(=O)(Nc1ccccc1)c1ccc(Cl)cc1	x	108
86	Cn1c(=O)n(C)c2cc(NS(=O)(=O)c3ccc(F)cc3)ccc21	101	94
87	COc1ccc(/C=C2/SC(=O)N(CNc3ccccc3Br)C2=O)cc1	108	x
88	c1ccc(CN2CCC(Nc3ncnc4c3oc3ccccc34)CC2)cc1	x	113
89	CCOc1cc(CNc2ccc(O)cc2)cc(Br)c1OCc1ccccc1	103	92
90	CCCc1ccc(S(=O)(=O)Nc2ccc(C)c(NS(C)(=O)=O)c2)cc1	101	91

nr	Sa growth inh second temp	HCMV UL50-53 inh
81	90	-7
82	93	x
83	x	0
84	100	7
85	90	-4
86	82	-2
87	x	-47
88	94	-5
89	72	8
90	86	-39

nr	Structure	GIV Gai3 FP	Sa growth inh
91	COc1ccc(NC(=O)c2ccco2)cc1NC(=O)c1ccc(OC(C)C)cc1	105	88
92	COc1ccc(-c2nnc3sc(-c4cc(CC(C)C)[nH]n4)nn23)cc1	106	x
93	Cn1cccc1Cc1nnc(SCC(=O)NC2CCCCC2)n1CCc1ccccc1	96	94
94	Cc1ccc(S(=O)(=O)NC2=NCN(c3ccc(Cl)cc3)CN2)cc1	x	74
95	CC(C)(CO)NS(=O)(=O)c1ccc2c(c1)oc(=O)c1cc(S(=O)(=O)NC(C)(C)CO)ccc12	111	102

nr	Sa growth inh second temp	HCMV UL50-53 inh
91	100	15
92	x	-2
93	94	x
94	91	-4
95	101	10
